Screens deposited in PubChem BioAssay by Broad Institute.
Shh pathway inh – Hedgehog pathway signaling inhibitors, primary screen, luminescence, Shh-LIGHT2 cells, Gli-luciferase. Shh-LIGHT2 Gli-luciferase reporter, 30 h. inhibition, % (test concentration not listed). 22,000 tested, 2.1% active;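 active = replicate mean of 65% or more; inconclusive = mean lower but half the replicates past it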;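 note: pathway switched on by Shh-conditioned medium diluted 1 in 25 in low serum; 100 nL library stock added to about 40 µL; 0% = median of neutral wells and 100% = positive control level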
MITF inh – inhibitors of MITF, primary screen, MITF inhibitor project, cell-based, luminescence | 37,000 tested, 0.28% active | AID 2240, 2010 | TRPM1 promoter luciferase, 24 h | inhibition, % (concentration not given with the values);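 active = most replicates at 85% or more, or half of them and the mean; inconclusive = half reach 85% but not the mean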;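 note: human melanocyte line stably carrying TRPM1 promoter luciferase reporter; 0% = vehicle wells and 100% = a positive control; the first replicate is given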
PD-1 reverse act – activators reversing PD-1 mediated T-cell inhibition, primary screen, luminescence, primary human CD4 T cells, PD-L1 beads. 29,000 tested, under 10 active. activation, % (no concentration beside the values). AID 2316, 2010. CellTiter-Glo 96 h;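 active = replicate mean of 50% or more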;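 note: 0% = median vehicle wells and 100% = positive control; 100 nL library stock added to about 50 µL; numbers are from one replicate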
YB-1 expression – inhibitors of YB-1 gene expression, primary screen, cell-based, fluorescence; delta delta Cp (YB-1 minus CDIP) (test concentration not listed); U2OS, qRT-PCR YB-1 vs CDIP delta delta Cp, 16 h; stronger effect = higher value; zero = DMSO, each unit about twofold; AID 434959, 2010; 30,000 tested, 0.37% active;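 active = delta delta Cp rounded down to an integer at or above 3, about 3 SD of DMSO wells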;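 note: higher means less YB-1 transcript or more CDIP transcript relative to DMSO; stock transfer was 100 nL into about 100 µL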
The depositor's hits bear a star; ? = inconclusive; · = not tested or not shown. The list is partial (hit frequency here may not be typical).

SMILES	Shh pathway inh	MITF inh	PD-1 reverse act	YB-1 expression
C[C@H]1CN([C@@H](C)CO)C(=O)Cc2cc(NC(=O)CCN3CCOCC3)ccc2O[C@@H]1CN(C)C(=O)NC1CCCCC1	2.4	-5.0	1.5	-0.0458
Cc1ccc(-c2noc(CCC(=O)NC(C)(C)C)n2)cc1	·	-75.9	2.2	·
COc1cccc(C(O)c2nccn2C)c1OC (stereo unspecified)	-60.3	-1.0	0.9	-0.42
CC(C)NC(=O)Nc1ccc2c(c1)C(=O)N([C@@H](C)CO)C[C@H](C)[C@H](CN(C)Cc1ccncc1)O2	31.0	-1.2	-2.7	0.271
C[C@H](CO)N1C[C@H](C)[C@@H](CN(C)Cc2ccc3c(c2)OCO3)Oc2ccc(NC(=O)Nc3ccc(C(F)(F)F)cc3)cc2C1=O	·	-1.3	0.3	0.0653
C[C@@H]1CN([C@H](C)CO)C(=O)Cc2cc(NC(=O)CCCCCC(=O)Nc3ccccc3N)ccc2O[C@@H]1CN(C)S(C)(=O)=O	·	-9.8	1.5	-0.801
O=C(NCCCN1CCCC1=O)c1cc2ccccc2oc1=O	·	9.1	0.0	·
CC1(C)Cc2nc3sc4c(SCC(=O)NCc5ccccc5)ncnc4c3cc2CO1	·	-1.9	-7.5	·
C[C@@H]1CN([C@@H](C)CO)C(=O)Cc2cc(NS(=O)(=O)c3ccc(F)cc3)ccc2O[C@@H]1CN(C)C(=O)Nc1cccc2ccccc12	0.6	-2.0	-1.2	-0.00771
COC(=O)c1c(-c2ccc(Br)cc2)csc1NC(=O)C1CCCCC1C(=O)O (stereo unspecified)	·	-57.5	-0.4	·
C=C1C(=O)O[C@@H]2C[C@H](C)C3C[C@H](O)[C@H](O)[C@@]3(C)C[C@H]12 (stereo partly specified)	?	·	·	1.14
C[C@@H]1CCCCO[C@@H](CN(C)Cc2ccc(C(F)(F)F)cc2)[C@@H](C)CN([C@H](C)CO)C(=O)c2cc(NC(=O)Nc3ccccc3)ccc2O1	-25.4	7.1	-1.3	-0.0631
Cc1ccccc1NC(=O)COc1ccc(N2CC(C(N)=O)CC2=O)cc1 (stereo unspecified)	·	-20.5	1.8	·
Cc1noc(C)c1S(=O)(=O)Nc1ccc2c(c1)C(=O)N([C@H](C)CO)C[C@@H](C)[C@H](CN(C)Cc1ccc(-c3ccccc3)cc1)O2	17.3	0.8	-0.9	-0.347
COc1ccc(S(=O)(=O)Nc2cccc3c2O[C@H](CN(C)Cc2ccncc2)[C@@H](C)CN([C@H](C)CO)C3=O)cc1	-9.8	3.1	2.4	0.226

No new results follow: an excerpt of the list.
SMILES	Shh pathway inh	MITF inh	PD-1 reverse act	YB-1 expression
C[C@H]1CN([C@@H](C)CO)C(=O)Cc2cc(NC(=O)CCN3CCOCC3)ccc2O[C@@H]1CN(C)C(=O)NC1CCCCC1	2.4	-5.0	1.5	-0.0458
Cc1ccc(-c2noc(CCC(=O)NC(C)(C)C)n2)cc1	·	-75.9	2.2	·

(list continues)
SMILES	Shh pathway inh	MITF inh	PD-1 reverse act	YB-1 expression
CC(=O)c1cccc(NC(=O)CN(C2CCCCC2)S(=O)(=O)c2ccc(Br)cc2)c1	·	17.0	-1.1	·
Cc1ccc(S(=O)(=O)N(C)C[C@H]2Oc3ccc(NC(=O)CCN4CCOCC4)cc3CC(=O)N([C@H](C)CO)C[C@H]2C)cc1	?	-16.7	-1.8	-0.26
CNC[C@@H]1Oc2ccc(NC(=O)Cc3cn(C)c4ccccc34)cc2CC(=O)N([C@H](C)CO)C[C@H]1C	-18.7	-1.0	2.5	-0.0161
C[C@@H]1CCCCO[C@H](CN(C)CC2CCCCC2)[C@@H](C)CN([C@H](C)CO)C(=O)c2cc(NC(=O)Cc3ccccc3)ccc2O1	·	-10.4	·	-0.0675
Cc1cc(C(=O)Nc2cccc3c2O[C@H](CN(C)Cc2ccc(C(=O)O)cc2)[C@@H](C)CN([C@H](C)CO)C3=O)n(C)n1	-7.4	-4.9	3.1	0.008
COc1ccc(S(=O)(=O)Nc2ccc3c(c2)C(=O)N([C@H](C)CO)C[C@H](C)[C@H](CN(C)S(=O)(=O)c2ccc(Cl)cc2)OCCCC[C@@H](C)O3)cc1	7.1	20.9	-7.1	-0.0271
C[C@H]1CN([C@@H](C)CO)C(=O)c2cccc(NS(=O)(=O)c3ccc(F)cc3)c2O[C@H]1CN(C)Cc1ccc(C(F)(F)F)cc1	27.0	-5.6	-3.3	0.00826
Cc1noc(C)c1NC(=O)Nc1cccc2c1O[C@H](CN(C)C)[C@H](C)CN([C@@H](C)CO)C2=O	-14.4	-1.3	1.8	0.289
Cc1cc(C)nc(/N=C2\NC(=O)CC(C(=O)O)N2c2ccc(F)c(Cl)c2)n1 (stereo unspecified)	·	-4.8	0.9	·
C[C@@H]1CN([C@@H](C)CO)C(=O)c2cccc(NC(=O)c3nc4ccccc4s3)c2O[C@@H]1CN(C)Cc1ccc(C(F)(F)F)cc1	-15.9	8.3	-3.8	0.201
C[C@@H]1CN([C@@H](C)CO)C(=O)c2cccc(NS(C)(=O)=O)c2O[C@H]1CN(C)Cc1ccc2c(c1)OCO2	-18.0	-2.5	·	-0.202
COc1ccc(S(=O)(=O)N(C)C[C@H]2Oc3c(NC(=O)C4CCOCC4)cccc3C(=O)N([C@H](C)CO)C[C@@H]2C)cc1	-11.7	-1.6	0.6	0.163
CN(C)CCCN1C(=O)C(=O)C(C(=O)c2cccs2)C1c1ccc(Cl)c(Cl)c1 (stereo unspecified)	·	0.2	1.6	·
COc1ccc(OC)c(N(CC(=O)Nc2cccc(Cl)c2Cl)S(C)(=O)=O)c1	·	-21.3	3.6	·
COc1ccc(NC(=O)Nc2ccc3c(c2)C(=O)N([C@H](C)CO)C[C@H](C)[C@H](CN(C)C(=O)NC(C)C)O3)cc1	·	4.5	0.7	-0.358

Of the compounds above, these contain bromine:
SMILES	Shh pathway inh	MITF inh	PD-1 reverse act	YB-1 expression
COC(=O)c1c(-c2ccc(Br)cc2)csc1NC(=O)C1CCCCC1C(=O)O (stereo unspecified)	·	-57.5	-0.4	·
CC(=O)c1cccc(NC(=O)CN(C2CCCCC2)S(=O)(=O)c2ccc(Br)cc2)c1	·	17.0	-1.1	·

More entries follow:
SMILES	Shh pathway inh	MITF inh	PD-1 reverse act	YB-1 expression
COc1ccc(C(=O)Oc2c(S(=O)(=O)c3ccccc3)c(C)nn2-c2ccccc2)cc1	·	4.3	-1.2	·
CC1CCC(C(C)C)C(N(Cc2ccccc2)C(=O)c2cccs2)C1 (stereo unspecified)	4.5	9.8	-1.1	-0.41
CC(C)NC(=O)Nc1ccc2c(c1)C(=O)N([C@@H](C)CO)C[C@@H](C)[C@H](CN(C)C(=O)Nc1ccc(F)cc1)O2	-18.3	-6.3	1.9	-0.0739
C[C@@H]1CN([C@@H](C)CO)C(=O)c2cccc(NS(=O)(=O)c3cccs3)c2O[C@H]1CN(C)C(=O)Nc1ccccc1	-23.0	-2.0	0.8	-0.128
C[C@H](CO)N1C[C@H](C)[C@H](CN(C)S(C)(=O)=O)Oc2c(NC(=O)c3ccncc3)cccc2C1=O	-4.6	1.8	1.6	0.0437
COc1ccc(S(=O)(=O)Nc2cccc3c2O[C@@H](CN(C)C)[C@H](C)CN([C@H](C)CO)C3=O)cc1	-19.9	2.7	·	-0.117
C[C@H](CO)N1C[C@H](C)[C@@H](CN(C)C(=O)Nc2ccccc2)Oc2c(NC(=O)C3CC3)cccc2C1=O	-14.7	-4.2	2.9	0.00245
Cc1nn(C)c(C)c1CN1CCN(C(=S)Nc2ccc(S(N)(=O)=O)cc2)CC1	·	-17.9	1.8	·
O=C(CCN1C(=O)C2C3C=CC(C4CC34)C2C1=O)Nc1ccc(F)cc1 (stereo unspecified)	·	-6.2	2.6	·
Cc1ccc(S(=O)(=O)N(C)C[C@H]2Oc3c(NC(=O)c4cc(C)nn4C)cccc3C(=O)N([C@H](C)CO)C[C@@H]2C)cc1	-18.3	-7.3	2.3	-0.143
Cc1ccc(S(=O)(=O)Nc2ccc3c(c2)C(=O)N([C@@H](C)CO)C[C@H](C)[C@H](CN(C)S(=O)(=O)c2c(C)noc2C)O3)cc1	13.0	-6.5	0.8	0.382
O=C(/C=C/c1ccccc1)c1ccc(O)cc1	-13.1	-34.5	·	-0.493
C[C@H](CO)N1C[C@H](C)[C@H](CN(C)Cc2ccc(C(F)(F)F)cc2)Oc2ccc(N(C)C)cc2C1=O	-21.7	1.6	-1.6	-0.133
C[C@@H]1CN([C@H](C)CO)C(=O)Cc2cc(NS(=O)(=O)c3cccs3)ccc2O[C@@H]1CN(C)C(=O)NC1CCCCC1	-27.8	-5.3	1.1	-0.173
COc1ccc(C(C)C)cc1S(=O)(=O)n1cnc2ccccc21	·	21.0	-2.9	·
Cc1noc(C)c1NC(=O)Nc1ccc2c(c1)CC(=O)N([C@@H](C)CO)C[C@@H](C)[C@@H](CN(C)S(=O)(=O)c1cccs1)O2	26.1	-3.3	0.6	-0.0519
C[C@@H]1CN([C@@H](C)CO)C(=O)c2cccc(NC(=O)Nc3ccc4c(c3)OCO4)c2O[C@@H]1CN(C)CC1CCCCC1	-63.8	-36.4	0.1	-0.372
CCC(C)N1C(=O)S/C(=C/c2ccc3c(c2)n(C)c(=O)n3C)C1=O (stereo unspecified)	32.8	-19.3	-4.7	0.0372
Cn1ccnc1SCCS(=O)(=O)c1ccccc1	-12.5	0.7	0.9	0.196
CC(C)NC(=O)Nc1cccc2c1O[C@@H](CN(C)C(=O)Nc1ccccc1)[C@@H](C)CN([C@H](C)CO)C2=O	-1.1	2.3	0.4	0.318
C[C@H]1CN([C@@H](C)CO)C(=O)c2cccc(NC(=O)c3ccc(-c4nccs4)cc3)c2O[C@H]1CN(C)Cc1ccc(C(=O)Nc2ccccc2N)cc1	·	-0.9	-2.4	-0.387
COc1ccc(C)cc1S(=O)(=O)N(C)CC(=O)Nc1ccc(F)c(Cl)c1	·	-8.5	0.6	·
C[C@@H]1CN([C@H](C)CO)C(=O)Cc2cc(NC(=O)NC3CCCCC3)ccc2O[C@@H]1CN(C)C(=O)Nc1ccc(C(F)(F)F)cc1	-39.3	0.1	-4.1	-0.292
CCN(CC(N)=O)S(=O)(=O)c1ccc2ccccc2c1	·	-15.6	1.9	·
C[C@H]1CN([C@@H](C)CO)C(=O)c2cccc(NC(=O)Nc3ccccc3)c2O[C@@H]1CN(C)CC1CCCCC1	-8.2	24.1	-3.2	-0.0111
C[C@H]1CN([C@@H](C)CO)C(=O)c2cc(NS(=O)(=O)c3ccc(Cl)cc3)ccc2O[C@H]1CN(C)Cc1ccc(Oc2ccccc2)cc1	41.0	22.7	0.5	-0.313
Cc1ccc(S(=O)(=O)Nc2ccc3c(c2)CC(=O)N([C@@H](C)CO)C[C@H](C)[C@H](CN(C)Cc2ccc(Cl)c(Cl)c2)O3)cc1	-32.8	4.6	1.3	-0.0497
C[C@H]1CN([C@@H](C)CO)C(=O)Cc2cc(NS(=O)(=O)c3cn(C)cn3)ccc2O[C@@H]1CN(C)S(=O)(=O)c1ccc(F)cc1	-17.7	-1.8	2.1	-0.00741
Cc1noc(C)c1S(=O)(=O)Nc1cccc2c1O[C@H](CN(C)C(=O)Nc1ccc(F)cc1)[C@H](C)CN([C@H](C)CO)C2=O	12.7	0.7	1.1	0.249
C[C@@H]1CN([C@@H](C)CO)C(=O)c2cccc(NC(=O)C3CC3)c2O[C@H]1CN(C)S(=O)(=O)c1ccccc1	14.6	-3.5	0.3	-0.078
CC1(C)S[C@@H]2[C@H](NC(=O)[C@H](NC(=O)N3CCNC3=O)c3ccccc3)C(=O)N2[C@H]1C(=O)O	-33.6	-0.7	·	0.139
CN1CCc2cc(Cl)c(O)cc2[C@@H](c2ccccc2)C1	16.9	-1.0	·	0.214
COc1cccc2cc(C(=O)CC3(O)C(=O)N(Cc4ccccc4)c4ccc(Br)cc43)c(=O)oc12 (stereo unspecified)	·	14.3	-6.3	·
COc1ccc(S(=O)(=O)N(C)C[C@@H]2Oc3ccc(NS(=O)(=O)c4c(C)noc4C)cc3C(=O)N([C@H](C)CO)C[C@@H]2C)cc1	9.2	2.0	-3.9	-0.155
C[C@H]1CN([C@@H](C)CO)C(=O)Cc2cc(NS(=O)(=O)c3ccc(F)cc3)ccc2O[C@@H]1CN(C)S(=O)(=O)c1ccc(F)cc1	-2.0	-0.7	·	-0.0665
C[C@@H]1CN([C@@H](C)CO)C(=O)c2cccc(NC(=O)Nc3ccc(F)cc3)c2O[C@H]1CN(C)C(=O)Nc1ccc2c(c1)OCO2	10.3	2.2	·	0.623
C[C@@H]1CN([C@@H](C)CO)C(=O)Cc2cc(NC(=O)Cc3cn(C)c4ccccc34)ccc2O[C@@H]1CN(C)Cc1ccccc1	-14.0	6.4	-3.7	0.386
C[C@H]1CN([C@@H](C)CO)C(=O)c2cc(NS(=O)(=O)c3ccc(F)cc3)ccc2O[C@@H]1CN(C)CC1CC1	7.7	-3.5	-0.3	-0.326
CNC[C@H]1Oc2c(NS(=O)(=O)c3ccc(Cl)cc3)cccc2C(=O)N([C@@H](C)CO)C[C@@H]1C	-41.1	4.6	0.4	-0.319
Cc1c(NC(=O)CN2c3cccc4cccc(c34)S2(=O)=O)c(=O)n(-c2ccccc2)n1C	·	2.8	2.2	·
